Lassa entry inh: blocks Lassa virus binding to or entry into cells; Lassa virus pseudotype entry inhibition, cell reporter; control for the full effect not named in the record; Potency, µM (top dose mostly 37.9 µM), for inactives: top-dose activity change, negative = inhibition, hits mostly inhibitors; 300,000 compounds, 1.2% hits; active means well fitted inhibition curve with a large enough effect; inconclusive means small, poorly fitted or top-dose-only effect, or effect the other way; inactive means flat fitted curve, though single readings scatter; tested in HEK293 cells; further: on the % scale 0 is the no-effect control and ±100 the full control effect; nearly all actives have a fitted effect of over 50% in size; luciferase read-out
2A StopGo: FMDV 2A StopGo reporter, luciferase signal; Potency, µM (highest dose often 57.9 µM), without a hit: top-dose signal change, negative = less light; human cells with a luciferase reporter of 2A StopGo recoding; control for the full effect not named in the record; 410,000 compounds, 1.2% hits; active = well fitted falling curve with a large enough effect; inconclusive = small, poorly fitted or top-dose-only effect; inactive = no such curve, though single readings can be large or run the other way; tested in HEK293T cells; further: on the % scale 0 is the no-effect control and ±100 the full control effect; nearly all actives have a fitted effect of over 45% in size; luciferase light after 4 h
NS1 inh: inhibitors of influenza NS1 protein function | 270,000 compounds, 0.4% hits | S. cerevisiae slowed by influenza A NS1, growth recovery by OD600 | Potency, µM (series often up to 46.1 µM), inactives show top-dose activity, positive = more growth; further: actives are rising curves; nearly all actives have a fitted effect of over 50% in size
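OD600 was taken as the measure of yeast growth restored by compound in an NS1-expressing S. cerevisiae strain. Cells had been washed out of glucose medium and diluted 1:100 into galactose -URA medium, pH 6.0.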
RE007 growth inh: less growth of the S. pombe RE007 Vpr strain | S. pombe RE007 Vpr strain, BacTiter-Glo ATP luminescence, 24 h; control for the full effect not named in the record | Potency, µM (top dose mostly 92.2 µM), for inactives: top-dose activity change, negative = less growth | 360,000 compounds, 0.21% hits; active = well fitted falling curve with a large enough effect; inconclusive = small, poorly fitted or top-dose-only effect; inactive = no such curve, though single readings can be large or run the other way;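 further: on the % scale 0 is the no-effect control and ±100 the full control effect; nearly all actives have a fitted effect of over 50% in size; the assay follows cell death caused by Vpr and the record does not say whether a fall means rescue or toxicity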
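Fission yeast RE007 carrying one integrated HIV-1 vpr copy, seeded at OD 0.01 in PMG+AL medium with 23 nL pinned compound. Grown 24 h at 30 degrees; viability read by BacTiter-Glo luminescence after 5 min.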
Cruzain noTriton: blocks cruzain activity in detergent-free assay. P25779. purified cruzain, Z-FR-AMC fluorescence, no detergent. Potency, µM, for inactives: max response, negative = inhibition, hits mostly inhibitors. 200,000 compounds, 2.3% hits. AID 1476; active means well fitted curve in the direction sought with a large enough effect; inconclusive means small, poorly fitted or top-dose-only effect, or another doubt; inactive means no such curve, though single readings can be large; an effect the other way counts as inactive or inconclusive;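 further: plate controls were enzyme without inhibitor for no effect and buffer without enzyme for full effect; nearly all actives have a fitted effect of over 40% in size; top concentration of the series not given in the record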
Target sequence (P25779 123-467 limits assumed): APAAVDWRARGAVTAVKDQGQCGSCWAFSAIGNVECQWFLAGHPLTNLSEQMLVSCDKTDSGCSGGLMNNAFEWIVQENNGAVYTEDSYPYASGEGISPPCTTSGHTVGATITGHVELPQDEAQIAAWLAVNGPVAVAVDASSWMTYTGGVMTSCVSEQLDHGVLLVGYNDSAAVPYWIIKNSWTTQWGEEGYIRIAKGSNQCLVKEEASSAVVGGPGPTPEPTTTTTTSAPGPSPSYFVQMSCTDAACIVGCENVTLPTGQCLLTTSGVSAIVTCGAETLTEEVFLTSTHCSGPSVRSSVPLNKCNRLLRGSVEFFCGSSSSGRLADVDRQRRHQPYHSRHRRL
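Detergent-free condition (0.00005% Triton X-100) in acetate buffer pH 5.5 with DTT. 1.5 nM enzyme and compound were pre-mixed 15 min, then 2 uM Z-FR-AMC substrate added; reaction progress from fluorescence change between first and third reads (60 s).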
MARV entry inh: inhibitors of Marburg virus binding or cell entry. Marburg virus pseudotyped entry inhibition, cell reporter; control for the full effect not named in the record; about a third of the inactives were read at about 46 µM. 300,000 compounds, 1.8% hits. AID 540276. Potency, µM (highest dose often 37.8 µM), for the others: at the highest dose activity change, negative = inhibition, hits mostly inhibitors; active = well fitted inhibition curve with a large enough effect; inconclusive = small, poorly fitted or top-dose-only effect, or effect the other way; inactive = flat fitted curve, though single readings scatter; tested in HEK293 cells; about a fifth of its hits are not listed in these tables; further: on the % scale 0 is the no-effect control and ±100 the full control effect; luciferase read-out
Cruzain inh Det: cruzain (T. cruzi) inhibition with detergent | Potency, µM, without a hit: max response, negative = inhibition, actives largely listed as inhibitors | purified cruzain, Z-FR-AMC fluorescence, 0.01% Triton | 200,000 compounds, 0.43% hits | P25779 | AID 1478; active means well fitted curve in the direction sought with a large enough effect; inconclusive means small, poorly fitted or top-dose-only effect, or another doubt; inactive means no such curve, though single readings can be large; an effect the other way counts as inactive or inconclusive;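 further: plate controls were neutral wells for no effect and buffer without enzyme for full effect; nearly all actives have a fitted effect of over 40% in size; top concentration of the series not given in the record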
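Purified cruzain (1.5 nM final) was preincubated with compounds for 15 min at room temperature in 100 mM sodium acetate pH 5.5, 5 mM DTT, 0.01% Triton X-100. Reaction started with 2 uM Z-FR-AMC; AMC fluorescence change over 60 s gave activity.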
SARS PLP yeast: inhibitors of SARS-CoV papain-like protease in yeast | 330,000 compounds, 0.19% hits | S. cerevisiae expressing SARS-CoV PLpro, growth rescue; control for the full effect not named in the record | Potency, µM (series often up to 32.9 µM), without a hit: at the top dose activity, positive = growth rescue | AID 485353; further: 0% is about no effect; nearly all actives have a fitted effect of over 55% in size; growth read by luminescence after 48 h
Starred values were filed as active, the others as inactive; ? = inconclusive; nt = not tested or not shown; & = joins results of further samples; [ ] = remark or other dose. Unless noted, the call rests on the fitted dose curve; in most records, active means well fitted rising curve with a large enough effect; inconclusive means small, poorly fitted or top-dose-only effect; inactive means no such curve, though single readings can be large or run the other way. Potency means the concentration at half of the fitted maximal effect.

SMILES	Lassa entry inh	2A StopGo	NS1 inh	RE007 growth inh	Cruzain noTriton	MARV entry inh	Cruzain inh Det	SARS PLP yeast
Cn1cnnc1Sc1nc2c(c(=O)n(C)c(=O)n2C)n1C	0%	-1%	1%	-6%	nt	-10%	nt	nt
COc1cc(NC(=O)c2ccc(OC)c([N+](=O)[O-])c2)ccc1NC(=O)c1cccs1	-4%	-20%	7%	-21%	-5%	-1%	-8.5%	-10%
Cc1n[nH]c(C)c1S(=O)(=O)N1CCc2ccccc21	0%	18%	-2%	1%	-3%	-2%	1.7%	-2%
O=C(CSc1nc2ccccc2o1)Nc1nc(-c2ccccc2)cs1	16%	-21%	12%	-30%	?	47%	-3.7%	-3%
O=C1C2CCCN2C(c2ccc(Br)cc2)N1c1ccc(F)cc1 (stereo not given)	nt	-21%	?	-1%	-5%	-2%	-3.9%	6%
Cc1ccc2oc(=O)c3cc(C(=O)N(Cc4ccccc4)C(C)C)sc3c2c1	?	-29%	nt	nt	-4%	-1%[46.1 µM]	0.0%	nt
COc1ccc(NC(=O)c2ccc(-n3cncn3)c([N+](=O)[O-])c2)cc1OC	-5%	-1%	nt	-4%	nt	-3%	nt	0%
Cc1ccc(P(C)(=O)c2ccc(C)cc2)cc1	4%	-5%	0%	-10%	24%	-2%	6.5%	-3%
O=C1NC2=C(C(=O)CCC2)C(c2ccccc2)N1 (stereo not given)	5%[46.1 µM]	1%	5%	-2%	nt	4%[46.1 µM]	nt	0%
O=C(c1cc(-c2ccccc2Cl)nc2ccccc12)N1CCN(c2ccccc2O)CC1	?	0%	nt	22%	nt	-24%	nt	7%
O=C(Nc1ccc(N2CCOCC2)cc1)C1CC1	2%	20%	10%	1%	-4%	4%	7.7%	4%
O=c1cc(O)c2sc3nc(-c4ccccc4)cc(C(F)(F)F)c3c2[nH]1	-5%	-13%	?	nt	-19%	0%	-5.6%	1%
CCOC(=O)c1cc(C#N)c(Oc2ccc(F)cc2)nc1-c1ccccc1	?	0%	-2%	2%	-3%	?	-1.6%	-7%
CCN(C(=O)CSc1ncnc2c1cnn2-c1ccccc1)C1CCS(=O)(=O)C1 (stereo not given)	?	-28%	nt	11%	nt	-29%	nt	-1%
C#CCn1ccc(O)c(Cc2ccccc2)c1=O	-24%	10%	-3%	2%	nt	-20%	nt	0%
Cn1c(SCC(=O)Nc2ccccc2F)nnc1-c1cc2ccccc2o1	20%	0%	0%	-10%	?	?	-0.2%	9%
CN(C)c1cc(=O)n2c(n1)SCCC2	22%	-11%	-3%	-2%	-1%	1%	3.1%	6%
O=C(C1CCC1)N1CCN(c2ccc(C(F)(F)F)cc2[N+](=O)[O-])CC1	-6%	-28%	6%	-17%	nt	-30%	nt	0%
CCC(=O)N1CCc2cc(S(=O)(=O)Nc3cc(C)ccc3OC)ccc21	7%[46.1 µM]	35%[activator]	nt	nt	?	3%[46.1 µM]	-1.6%	nt
N#Cc1ccc(-c2cccs2)nc1SCc1ccc(Br)cc1	5%[46.1 µM]	10%	nt	nt	-7%	1%[46.1 µM]	-2.5%	nt
CC(CCc1ccccc1)NC(=O)C1CCN(c2nnc(-n3cccc3)s2)CC1 (stereo not given)	nt	-4%	-33%	6%	6%	nt	2.2%	-5%
COc1ccc(CN2CCc3ccc(NC(=O)c4ccncc4)cc3C2)c(F)c1	24%	?	12%	-6%	nt	-17%	nt	5%
CC12CCC(=O)N1C(C(=O)Nc1nc(-c3ccc(F)cc3)cs1)CS2 (stereo not given)	-13%	0%	nt	-5%	nt	1%[46.1 µM]	nt	nt
CC(C)NC(=O)c1onc(CSc2ccc(F)cc2)c1C(=O)O	nt	-10%	16%	-6%	5%	nt	-2.0%	0%
COc1ccccc1NC(=O)C1CCCN(c2cc(C)nc3ncnn23)C1 (stereo not given)	?	-4%	-5%	-9%	2%	-1%	0.6%	-10%
CCc1ccc(CSc2nc(-c3ccccc3OC)nc3c2Cc2c(CO)cnc(C)c2O3)cc1	0%[46.1 µM]	-26%	nt	nt	?	nt	-14%	nt
COc1ccccc1C(=O)NCC(c1ccc(N(C)C)cc1)N1CCc2ccccc21 (stereo not given)	-1%[46.1 µM]	?	nt	nt	?	nt	-11%	nt
CCNC(=S)N(CCc1ccccc1C)Cc1cc2cc(OC)c(OC)cc2[nH]c1=O	-4%	-25%	16%	22%	?	6%	-9.8%	-3%
CCCC/C=C/C(NC(=O)c1ccc(-c2ccccc2)cc1)c1ccccc1 (stereo not given)	nt	3%	nt	-7%	16µM*	nt	5.5%	nt
CSc1cccc(NC(=S)N(Cc2ccccc2)Cc2ccccn2)c1	-38%	17%	nt	-15%	nt	?	nt	7%
CC1(C(=O)N2CCN(c3ccccc3)CC2)CC1(Cl)Cl (stereo not given)	3%[46.1 µM]	-10%	1%	6%	nt	-6%[46.1 µM]	nt	1%
CC(=O)N1CCCN(Cc2cn(-c3cccc(C)c3)nc2-c2cccc(F)c2)CC1	nt	25%	-1%	1%	nt	nt	nt	-3%
O=C(CN1CCSc2ccccc21)NCCCc1ccccc1	-4%	63%[activator]	nt	1%	nt	25%	nt	0%
Clc1ccc(-c2nnn3c2nc(N2CCCCC2)c2ccccc23)cc1	3%[46.1 µM]	2%	nt	nt	-8%	-2%[46.1 µM]	-0.2%	nt
CCOC(=O)CSc1nn(C)c(=S)s1	nt	0%	?	-13%	-3%	nt	-7.8%	1%
Cc1ccc(C)c(N2CCN(S(=O)(=O)c3ccc(-c4cnc(C5CC5)o4)cc3)CC2)c1	?	0%	nt	nt	-27%	nt	-4.0%	nt
Cc1c(C(=O)Oc2cccc3cccnc23)cccc1[N+](=O)[O-]	11%	19%	nt	?	nt	-2%[14.2 µM]	nt	-4%
COc1ccccc1NS(=O)(=O)c1cc(Cl)ccc1OC	14%	45%[activator]	-18%	12%	4%	?	-6.0%	-5%
CCOC(=O)N1CCN(C(=O)C2CCN(S(=O)(=O)c3ccc(Br)s3)CC2)CC1	?	-10%	-6%	-2%	?	-1%&-1%[46.1 µM]	1.0%	6%
O=C(Nc1cccc(F)c1)Nc1ccc2c(c1)OCO2	-23%[46.1 µM]	8%	-37%	-5%	nt	?	nt	-3%
COc1cc(C)nc(N2CCC(C(=O)NC3CCCCC3)CC2)n1	2%	nt	-9%	-8%	11%	-5%	8.8%	1%
O=C(CCC(=O)Nc1ccccc1Cl)NNC(=O)c1ccco1	-14%	-8%	4%	18%	-5%	?	0.9%	3%
CC(C)OC(=O)C1C(=O)CC(C)(O)C(C(=O)OC(C)C)C1c1ccc([N+](=O)[O-])cc1 (stereo not given)	-14%	-8%	-3%	8%	nt	-2%	nt	0%
O=C(Nc1cnc2ccccc2c1)N1CCOCC1	2%	53%[activator]	0%	-1%	1%	?	-0.8%	-2%
COC(=O)c1ccc(=O)n(Cc2ccc3c(c2)OCO3)c1	10%	-17%	-2%	2%	-5%	8%	1.4%	-3%

An excerpt from above in order of molar mass, lowest first.
SMILES	Lassa entry inh	2A StopGo	NS1 inh	RE007 growth inh	Cruzain noTriton	MARV entry inh	Cruzain inh Det	SARS PLP yeast
COC(=O)c1ccc(=O)n(Cc2ccc3c(c2)OCO3)c1	10%	-17%	-2%	2%	-5%	8%	1.4%	-3%
O=C(CN1CCSc2ccccc21)NCCCc1ccccc1	-4%	63%[activator]	nt	1%	nt	25%	nt	0%
Cc1ccc(C)c(N2CCN(S(=O)(=O)c3ccc(-c4cnc(C5CC5)o4)cc3)CC2)c1	?	0%	nt	nt	-27%	nt	-4.0%	nt

An excerpt from above in order of molecular weight, largest number first.
SMILES	Lassa entry inh	2A StopGo	NS1 inh	RE007 growth inh	Cruzain noTriton	MARV entry inh	Cruzain inh Det	SARS PLP yeast
Cc1ccc2oc(=O)c3cc(C(=O)N(Cc4ccccc4)C(C)C)sc3c2c1	?	-29%	nt	nt	-4%	-1%[46.1 µM]	0.0%	nt
CCCC/C=C/C(NC(=O)c1ccc(-c2ccccc2)cc1)c1ccccc1 (stereo not given)	nt	3%	nt	-7%	16µM*	nt	5.5%	nt
Clc1ccc(-c2nnn3c2nc(N2CCCCC2)c2ccccc23)cc1	3%[46.1 µM]	2%	nt	nt	-8%	-2%[46.1 µM]	-0.2%	nt
COc1ccccc1NS(=O)(=O)c1cc(Cl)ccc1OC	14%	45%[activator]	-18%	12%	4%	?	-6.0%	-5%
Cn1cnnc1Sc1nc2c(c(=O)n(C)c(=O)n2C)n1C	0%	-1%	1%	-6%	nt	-10%	nt	nt
O=C(Nc1cccc(F)c1)Nc1ccc2c(c1)OCO2	-23%[46.1 µM]	8%	-37%	-5%	nt	?	nt	-3%
O=C(Nc1cnc2ccccc2c1)N1CCOCC1	2%	53%[activator]	0%	-1%	1%	?	-0.8%	-2%
CCOC(=O)CSc1nn(C)c(=S)s1	nt	0%	?	-13%	-3%	nt	-7.8%	1%
O=C(Nc1ccc(N2CCOCC2)cc1)C1CC1	2%	20%	10%	1%	-4%	4%	7.7%	4%

Additional structures:
SMILES	Lassa entry inh	2A StopGo	NS1 inh	RE007 growth inh	Cruzain noTriton	MARV entry inh	Cruzain inh Det	SARS PLP yeast
Cc1c(C(=O)Nc2ccc(C(=O)Nc3ccccc3)cc2)cccc1[N+](=O)[O-]	17%[46.1 µM]	-2%	-12%	-5%	nt	0%[46.1 µM]	nt	-2%
Cc1sc2nc(C(C)Nc3ccccc3N3CCOCC3)[nH]c(=O)c2c1C (stereo not given)	4%	-24%	?	0%	-6%	-29%	3.5%	9%
COc1cccc(C2=NOC(C(=O)Nc3ccc(OC)c(OC)c3)C2)c1 (stereo not given)	-9%	-27%	-70%	3%	-4%	-3%	0.4%	3%
CCOc1ccc(S(=O)(=O)Nc2ccncc2)c(C)c1C	4%	34%[activator]	nt	1%	nt	16%[14.2 µM]	nt	0%
Cc1cccc(-c2cc(C(=O)N3CCCc4ccccc43)c3ccccc3n2)c1	-12%	29%	15%	-7%	?	?	-10%	-21%
